RGS16-Gao HTS: regulators of human RGS16-Galphao interaction; O15492+P09471; bead-based flow cytometry RGS16-Galphao binding, fluorescence; actives lie on both sides; binding response (% of control), % at 10 µM; 220,000 compounds, 0.38% hits;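 active = below 25% or above 175%, edge rows of some plates excepted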;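 note: Galphao activated by GDP with aluminum fluoride before binding; 100% = wells without compound and 0% = beads without RGS; some results beyond the cut were filed as inactive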
Insulin prom inh: TRM-6 insulin promoter activity inhibition; 130,000 compounds, 0.9% hits; AID 1273; inhibition, % at 2 µM; TRM-6 cells (human fetal islet line), insulin promoter-eGFP reporter, imaging; reporter expression induced with tamoxifen;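 active = inhibition above the mean plus 3 SD, with well images judged a real hit on visual review, cut at about 60% in these data, passing the limit was not always enough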
GALR2 ag: activates the human galanin receptor 2; O43603; GALR2-expressing cells, agonist activation read-out; activation, %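 (tested at 5 µM)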; 140,000 compounds, 0.48% hits;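 active = above mean plus 3 SD of all compounds, about 5% in these data, not always enough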;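 note: 0% = vehicle buffer wells and 100% = reference agonist at full effect; tested in CHO reporter cells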
HSV augment: HSV replication enhancement; HSV replication augmentation in cells, fold increase; maximum fold increase; 220,000 compounds, 0.005% hits;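 active = peak rise of 1.5-fold or more in the series; tested in PC3 cells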;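 note: first round at 10 µM; read as green reporter fluorescence; hits show the peak of a series up to 25 µM; 1 = signal of infected wells without compound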
PKD1 inh: inhibitors of human PKD1 kinase | PKD1 kinase fluorescence polarization assay | inhibition, %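 (about 10 µM by stock and volumes)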 | 200,000 compounds, 0.056% hits | AID 797;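 active = inhibition of 50% or more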;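 note: controls were vehicle for no effect and a reference inhibitor for full effect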
Target sequence (Q15139 whole entry, looked up): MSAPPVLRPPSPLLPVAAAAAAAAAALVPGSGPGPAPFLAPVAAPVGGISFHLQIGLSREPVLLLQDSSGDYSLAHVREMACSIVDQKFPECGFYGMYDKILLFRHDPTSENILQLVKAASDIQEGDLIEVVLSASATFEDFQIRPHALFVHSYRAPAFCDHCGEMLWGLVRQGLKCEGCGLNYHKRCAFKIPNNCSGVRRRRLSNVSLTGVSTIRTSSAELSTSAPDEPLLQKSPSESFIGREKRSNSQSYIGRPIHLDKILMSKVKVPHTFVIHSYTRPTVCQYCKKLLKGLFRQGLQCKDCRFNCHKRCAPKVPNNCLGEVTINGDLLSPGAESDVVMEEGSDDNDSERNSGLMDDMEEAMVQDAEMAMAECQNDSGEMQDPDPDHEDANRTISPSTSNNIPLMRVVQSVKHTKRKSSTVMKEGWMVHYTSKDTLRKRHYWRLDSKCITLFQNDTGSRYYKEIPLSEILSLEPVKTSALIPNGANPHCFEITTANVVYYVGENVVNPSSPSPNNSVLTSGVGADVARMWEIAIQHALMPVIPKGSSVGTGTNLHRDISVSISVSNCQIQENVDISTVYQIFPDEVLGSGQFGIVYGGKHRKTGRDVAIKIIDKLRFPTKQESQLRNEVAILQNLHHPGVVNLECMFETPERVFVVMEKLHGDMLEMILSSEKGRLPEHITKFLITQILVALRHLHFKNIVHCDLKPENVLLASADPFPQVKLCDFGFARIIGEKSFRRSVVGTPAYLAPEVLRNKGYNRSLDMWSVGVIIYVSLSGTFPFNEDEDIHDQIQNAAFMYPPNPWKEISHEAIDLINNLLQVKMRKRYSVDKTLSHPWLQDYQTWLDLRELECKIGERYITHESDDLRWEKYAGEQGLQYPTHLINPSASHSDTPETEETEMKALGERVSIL
Insulin prom inh cell count: also measured in Insulin prom inh; calls as there; normalized cell count, %; measured here: cell count, toxicity; reference of the scale not given here;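 cells exposed to compound for 48 h; stained nuclei by imaging scaled within each plate; lower means fewer cells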
HSV augment primary fold: recorded beside HSV augment, whose call it bears; fold increase; compound at 10 µM; measured here: primary screen fold increase 10 uM; tested in PC3 cells;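 GFP signal in the first replicate; 1 = infected wells without compound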
Starred values were filed as active, the others as inactive; i = inactive; . = not tested or not shown; & = joins results of further samples. Not all compounds are listed. The share of hits here may be higher or lower than overall.

entry	Compound	RGS16-Gao HTS	Insulin prom inh	Insulin prom inh cell count	GALR2 ag	HSV augment	HSV augment primary fold	PKD1 inh
1	Cc1ccc(S(=O)(=O)NP(=O)(Oc2ccccc2)Oc2ccccc2)cc1	89	34	111	-1.6	i	0.85	-3
2	O=C(O)C1C2CCC(O2)C1C(=O)Nc1ccc(Cl)cc1 (stereo not drawn)	97	25	98	.	i	0.98	2
3	CN1C(=O)C(Cc2nc3ccccc3c(=O)n2-c2ccccc2)c2ccccc21 (stereo not drawn)	102	-7	106	0.2	i	0.97	-7
4	O=C(Nc1ccccc1)c1c(O)c2c(n(Cc3ccco3)c1=O)CCCC2	101	.	.	.	i	0.98	.
5	N#CCC(=O)NN1Cc2ccccc2C1=N	71	23	44	-1.2	i	0.99	-2
6	CCCCCSc1cc(OC)c(CCN(C)C)cc1OC	115	.	.	-1.8	i	1	-5
7	Cc1cccc(OP(N)(N)=O)c1C	102	.	.	.	i	1	-1
8	COc1ccccc1N1CCN(Cc2ccc(F)cc2)CC1	105	-50	60	.	.	.	-3
9	Cc1cccc(N2C(=O)CC(=O)NC2=O)c1	107	.	.	-2.8	i	1.1	-14
10	CSc1ccc(CNC2CN3CCC2CC3)cc1 (stereo not drawn)	98	.	.	-2.1	i	0.98	-2
11	CC(O)(CS(=O)(=O)c1ccccc1)C(=O)Nc1cccc(C(F)(F)F)c1 (stereo not drawn)	105	25	92	-1.5	i	0.86	-3
12	CCC(C)N=Cc1c(O)n(-c2ccccc2)c(=O)[nH]c1=O (stereo not drawn)	92	22	71	-1.7	i	1	-7
13	CCC(C)N1C(=O)/C(=C\c2cnc(N(C)C)nc2)C(=O)NC1=S (stereo not drawn)	98	-12	120	.	i	1.3	11
14	O=c1[nH]c(=S)[nH]c(O)c1N=Nc1ccc2c(c1)OCCO2	96	.	.	.	i	1.1	.
15	COC(=O)N(C)c1ccc(C(O)(C(=O)OC)C(F)(F)F)cc1 (stereo not drawn)	108	-11	124	0.0	i	0.94	-2
16	O=c1[nH]c2ccccc2n1C1CCN(CCCC(c2ccc(F)cc2)c2ccc(F)cc2)CC1	99	-14	146	0.9	i	0.64	-4
17	CCCCCn1c(=O)c(C(=O)Nc2nc(CC(=O)OCC)cs2)c(O)c2ccccc21	103	50	155	.	i	1.1	0
18	Cc1oc(-c2ccc(Cl)cc2)nc1CS(=O)CC(=O)N1CCC2(CC1)OCCO2 (stereo not drawn)	102	-21	168	-3.9	i	0.95	0
19	Cc1nn(Cc2ccccc2)c(C)c1C(=O)OCC(=O)Nc1cccc(S(N)(=O)=O)c1	104	.	.	.	i	0.98	1
20	CCC(C)NC(=O)CN1C(=O)CN=C(c2ccccc2)c2ccccc21 (stereo not drawn)	101	2	101	.	i	1	4
21	CCCCn1c(=O)c(C=Nc2cccnc2Cl)c(O)n(CCCCl)c1=O	106	57	42	-0.6	i	1.1	-2
22	CCC(=O)c1cn(Cc2ccccc2)c2ccccc12	100	.	.	.	i	0.99	2
23	COc1cccc(-n2c(=S)[nH]c3ccccc3c2=O)c1	104	67	62	.	i	1	-2
24	Nc1ccc2cc(Br)ccc2c1	108	.	.	.	i	0.82	-1
25	CC12CN3CC(C)(CN(C1)C3c1ccco1)C2=O (stereo not drawn)	90	42	46	-1.4	i	0.96	-3

Some values from the entries so far.
compound 25 in HSV augment primary fold is entered as 0.96
compound 2 in HSV augment primary fold is entered as 0.98
compound 11 in Insulin prom inh is entered as 25
compound 7 in RGS16-Gao HTS is entered as 102
compound 1 in PKD1 inh is entered as -3
compound 24 in PKD1 inh is entered as -1
compound 12 in Insulin prom inh is entered as 22

In the list so far, three contain an aryl methoxy group.
entry	Compound	RGS16-Gao HTS	Insulin prom inh	Insulin prom inh cell count	GALR2 ag	HSV augment	HSV augment primary fold	PKD1 inh
6	CCCCCSc1cc(OC)c(CCN(C)C)cc1OC	115	.	.	-1.8	i	1	-5
8	COc1ccccc1N1CCN(Cc2ccc(F)cc2)CC1	105	-50	60	.	.	.	-3
23	COc1cccc(-n2c(=S)[nH]c3ccccc3c2=O)c1	104	67	62	.	i	1	-2

Shown with each value named: entries from further up.
#3 CN1C(=O)C(Cc2nc3ccccc3c(=O)n2-c2ccccc2)c2ccccc21 (stereo not drawn)
  RGS16-Gao HTS = 102	Insulin prom inh = -7	Insulin prom inh cell count = 106	GALR2 ag = 0.2	HSV augment = i	HSV augment primary fold = 0.97	PKD1 inh = -7

#4 O=C(Nc1ccccc1)c1c(O)c2c(n(Cc3ccco3)c1=O)CCCC2
  RGS16-Gao HTS = 101	Insulin prom inh = .	Insulin prom inh cell count = .	GALR2 ag = .	HSV augment = i	HSV augment primary fold = 0.98	PKD1 inh = .

#5 N#CCC(=O)NN1Cc2ccccc2C1=N
  RGS16-Gao HTS = 71	Insulin prom inh = 23	Insulin prom inh cell count = 44	GALR2 ag = -1.2	HSV augment = i	HSV augment primary fold = 0.99	PKD1 inh = -2

#6 CCCCCSc1cc(OC)c(CCN(C)C)cc1OC
  RGS16-Gao HTS = 115	Insulin prom inh = .	Insulin prom inh cell count = .	GALR2 ag = -1.8	HSV augment = i	HSV augment primary fold = 1	PKD1 inh = -5

Other compounds.
entry	Compound	RGS16-Gao HTS	Insulin prom inh	Insulin prom inh cell count	GALR2 ag	HSV augment	HSV augment primary fold	PKD1 inh
26	O=c1[nH]c(=S)n(C2CC2)c(O)c1C=Nc1cccc(C(F)(F)F)c1	104	.	.	-1.4	i	1	10
27	CC1CCC[C@H](O)CCCCCc2cc(O)cc(O)c2C(=O)O1 (stereo partly drawn)	104&85	-148	114	-0.7	i	0.83	6
28	C(=NC12CN3CN(CN(C3)C1)C2)c1cccs1	109	3	115	-2.0	i	0.86	1
29	CN1CCN(c2ccc(N)cc2Cl)CC1	101	43	151	.	.	.	4
30	CCN(CC)CCCN=C(C)c1c(O)n(-c2ccc(C)cc2)c(=O)[nH]c1=O	133	64	122	-1.0	i	1	-1
31	CC(Cc1ccccc1Sc1ccc(O)cc1)N(C)C (stereo not drawn)	101	30	53	-1.7	i	0.84	-3
32	CCOC(=O)/C(=N\Nc1ccccc1)N1CC1	97	.	.	.	i	1	2
33	CCOc1ccc(/C=C2/C(=O)NC(=O)N(CCc3ccc(F)cc3)C2=O)cc1	103	-28	101	-1.2	i	1.1	-4
34	Cc1ccc2c(c1)C1CN(C)CCC1N2C(=O)COc1ccc(S(=O)(=O)N2CCOCC2)cc1 (stereo not drawn)	105	-3	125	-2.2	i	0.76	3
35	CCN(CC)c1ccc(N=Cc2c(O)n(CCc3ccc(OC)c(OC)c3)c(=O)[nH]c2=O)cc1	119	.	.	0.0	i	1.2	-4
36	C=CCn1c(O)c(C(CC)=NCCC2=CCCCC2)c(=O)[nH]c1=O	100	-30	183	-0.1	i	1.2	-7
37	O=C(c1cc(C(=O)NCc2ccc(Cl)cc2)c(=O)n(Cc2ccc(Cl)cc2)c1)c1cc(F)ccc1O	101	19	131	-1.2	i	0.98	7
38	CCN1CCN(C(=O)Cc2coc3ccc4ccccc4c23)CC1	139	-13	86	-1.7	i	0.99	4
39	CN1CCN(Cc2cn3cccnc3n2)CC1	99	.	.	.	i	0.93	-10
40	COc1ccc(OC)c(N2C(=O)NC(=O)C3(Cc4cc(C)ccc4N(C)C3)C2=O)c1 (stereo not drawn)	101	-27	90	-2.5	i	0.76	-12
41	COc1cccc(N2C(=O)NC(=O)/C(=C/c3ccc([N+](=O)[O-])s3)C2=O)c1	83	.	.	.	i	1	.
42	CCc1ccc(N2C(=O)NC(=O)/C(=C/c3cccn3CCOc3ccc(C)cc3)C2=O)cc1	97	.	.	1.3	i	1.2	7
43	O=C(c1ccccc1)C1NC1c1ccccc1 (stereo not drawn)	101	.	.	.	i	1.1	.

2 of these compounds, reformatted.
14	O=c1[nH]c(=S)[nH]c(O)c1N=Nc1ccc2c(c1)OCCO2
  RGS16-Gao HTS = 96	Insulin prom inh = .	Insulin prom inh cell count = .	GALR2 ag = .	HSV augment = i	HSV augment primary fold = 1.1	PKD1 inh = .
15	COC(=O)N(C)c1ccc(C(O)(C(=O)OC)C(F)(F)F)cc1 (stereo not drawn)
  RGS16-Gao HTS = 108	Insulin prom inh = -11	Insulin prom inh cell count = 124	GALR2 ag = 0.0	HSV augment = i	HSV augment primary fold = 0.94	PKD1 inh = -2
